RanGTP-Imp inh = inhibitors of RanGTP-importin-beta interaction, primary screen, biochemical, FRET, CFP-Ran, YFP-importin-beta, homogeneous; Ran GTPase (GTP-bound) - importin-beta complex; cell-free CFP-Ran/YFP-importin-beta FRET ratio; inhibition, % (no concentration beside the values); hit rate 1.1% among 300,000;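 active = most replicates above 15%; inconclusive = exactly half above 15%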;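 note: 0% = DMSO wells and 100% = Ran loaded with GDP instead of GTP; wells of about 40 µL received 100 nL stock; the first replicate is given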
Bfl-1 A1 inh = caspase 3/7 activation in MEF A1-2A-BIM cells, primary screen, A1 inhibitor project, cell-based, luminescence, HTS; caspase activation, % (concentration not given with the values); Caspase-Glo 3/7 luminescence, 3 h; percent of clofoctol response, vehicle zero; hit rate 0.066% among 330,000;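 active = over half of replicate activation scores above 10%, or exactly half above 10 with the replicate mean above 10; inconclusive = replicate mean below 10 yet half the replicates above 10; inactive = over half of replicates below 10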;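 note: wells of about 30 µL received 50 nL stock; many hits fall short of the cut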
Ecoli rRNA inh = reduced GFP signal of wild-type E. coli, primary screen, bacterial rRNA inhibitor project, GFP/RFP fluorescence, OD600, single point. GFP signal change (wild-type ribosome), % (concentration not given with the values). E. coli WT GFP vs humanized-ribosome RFP mutants, 24 h; active compounds read low; DMSO median 0, no signal -100. hit rate 1.6% among 350,000;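 active = significant combined selectivity score with lowered wild-type GFP, culture density cut under 30%, mutant RFP and density less affected; inactive = any of these conditions unmet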; note: one replicate is shown; some compounds called inactive have numbers as strong as hits
Beta apoptosis = inhibitors of cytokine-induced beta cell apoptosis, primary screen, luminescence | INS-1E cytokine-induced death, ATP luminescence, 48 h; percent of positive-control rescue, neutral wells zero | protection from apoptosis, % (concentration not given with the values) | hit rate 0.8% among 300,000 | AID 435005, 2010;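 active = all replicates at 75% or more, or half of them and the mean; inconclusive = half reach 75% but not the mean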;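 note: 0% = cytokine-treated negative control wells and 100% = positive control rescue; higher means more ATP so stronger rescue from cytokine killing; wells of about 40 µL received 100 nL stock; the first replicate is given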
Calb FLC = C. albicans growth inhibition with fluconazole, primary screen, CaCi-2 strain, Alamar Blue fluorescence; C. albicans CaCi-2 (fluconazole-resistant clinical isolate) + fluconazole, 48 h; growth inhibition, % (no concentration beside the values); hit rate 0.57% among 300,000; AID 1979, 2009;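 active = most replicates above 75%; inconclusive = exactly half above 75%; inactive = most below 75%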;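 note: all wells also contain fluconazole at 8 µg/ml as a sub-toxic cotreatment; 0% = median of DMSO wells and 100% = median of geldanamycin control wells; wells of about 8 µL received 7.5 nL stock; the first replicate is given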
Vif A3G = inhibitors of Vif binding to APOBEC3G peptide, primary screen, biochemical, TR-FRET, GST-Vif 1-94, biotin-A3G peptide, dose response retest (AID 1117319); Virion infectivity factor (Human immunodeficiency virus type 1 group M subtype B (isolate …; TR-FRET GST-Vif / biotin-A3G peptide binding; higher % means a stronger effect; test concentration not given here; strong numbers were not always called active; inhibition, %; hits with a dose series show IC50 in µM; hit rate 0.57% among 260,000;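 active = above the screen mean plus three standard deviations and confirmed in dose response; inconclusive = results disagree or hit not tested in dose response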;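 note: Vif residues 1-94 fused to GST binding biotinylated APOBEC3G peptide 110-148; 0% = full assay without inhibitor and 100% = GST in place of GST-Vif; retest series ran down from 100 µM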
MLL AF4-AF9 inh = inhibitors of AF4 peptide binding to AF9, primary screen, biochemical, AlphaScreen, biotin-AF4 peptide, FLAG-AF9, single point. AID 651704, 2012. inhibition, % at 10 µM. hit rate 0.47% among 350,000;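 active = every replicate reaching a set inhibition limit, whatever the replicate mean, cut at about 25% in these data; inconclusive = mean inhibition reaches that limit but some replicates miss it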;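 note: 0% = plate neutral control median and 100% = total signal loss; the record names both 10 and 1 µM as test concentration; the first replicate is given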
Target sequence (P42568 whole entry, looked up): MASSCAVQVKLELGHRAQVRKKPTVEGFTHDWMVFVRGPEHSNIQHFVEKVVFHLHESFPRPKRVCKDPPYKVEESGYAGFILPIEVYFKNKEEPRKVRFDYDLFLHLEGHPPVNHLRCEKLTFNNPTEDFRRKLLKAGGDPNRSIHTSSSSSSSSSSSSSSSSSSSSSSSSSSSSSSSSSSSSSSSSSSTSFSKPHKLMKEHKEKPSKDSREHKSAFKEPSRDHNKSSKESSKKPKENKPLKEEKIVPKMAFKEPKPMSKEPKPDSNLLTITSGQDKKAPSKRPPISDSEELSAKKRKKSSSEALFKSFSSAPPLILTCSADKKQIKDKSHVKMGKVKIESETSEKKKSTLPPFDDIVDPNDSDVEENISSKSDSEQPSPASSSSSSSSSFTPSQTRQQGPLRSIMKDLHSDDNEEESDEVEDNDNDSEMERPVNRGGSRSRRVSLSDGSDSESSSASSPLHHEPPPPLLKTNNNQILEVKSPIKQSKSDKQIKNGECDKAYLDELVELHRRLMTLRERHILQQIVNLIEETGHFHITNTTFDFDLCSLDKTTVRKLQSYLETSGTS
T cruzi repl = inhibitors of intracellular T. cruzi growth, primary screen, luminescence, NIH3T3 host cells; AID 1885, 2009; inhibition, % (no concentration beside the values); hit rate 1.4% among 300,000; T. cruzi beta-gal in NIH3T3, 90 h;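 active = mean inhibition across valid replicates above about 55%, limit read from the data; inconclusive = mean below that limit but half or more replicates reach it; inactive = mean below it, under half of replicates reach it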;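 note: signal also drops with host cell toxicity which is not excluded here; 0% = plate median of DMSO wells and 100% = zero luminescence signal; higher percent means less beta-gal luminescence so fewer parasites; stock transfer was 50 nL into about 50 µL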
Ecoli rRNA inh OD600 = second read-out of Ecoli rRNA inh, no call of its own (marks repeat the call); OD600 change, %; measured here: OD600 growth;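 optical density of the mix in the first replicate; 0 = DMSO median and -100 = no signal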
Ecoli rRNA inh RFP = further read-out of Ecoli rRNA inh, marked with its call; RFP signal change, %; measured here: RFP humanized mutant strains;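 first replicate; 0 = DMSO median and -100 = no signal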
Active calls of the source: *. These rows are one share of the data; count on the stated rates, not on these rows.

What do the screens show for `COC(=O)[C@@]12CCCN1[C@H](c1ccc(SC3CCCCC3)cc1)[C@H]1C(=O)N(C)C(=O)[C@H]12`?
Bfl-1 A1 inh: 0.4; Ecoli rRNA inh: -3.4; Beta apoptosis: 1.3; MLL AF4-AF9 inh: 7.0; Ecoli rRNA inh OD600: -6.4; Ecoli rRNA inh RFP: -8.0

How did COc1cc(/C=N/NC(N)=S)ccc1OCC(=O)N1CCOCC1 do in these assays?
RanGTP-Imp inh: -3.1; Bfl-1 A1 inh: -0.5; Ecoli rRNA inh: 3.6; Beta apoptosis: -3.5; Calb FLC: -3.4; Vif A3G: 6.5%; MLL AF4-AF9 inh: -1.5; T cruzi repl: -6.1; Ecoli rRNA inh OD600: 3.6; Ecoli rRNA inh RFP: 8.3

How did Cc1cccc(NC(=O)CSCC(=O)N=c2sccn2C)c1 do in these assays?
RanGTP-Imp inh: -2.7; Bfl-1 A1 inh: -0.5; Ecoli rRNA inh: 3.5; Beta apoptosis: -1.3; Calb FLC: 6.4; Vif A3G: 5.6%; MLL AF4-AF9 inh: -4.7; T cruzi repl: -7.3; Ecoli rRNA inh OD600: 3.0; Ecoli rRNA inh RFP: -2.3

What do the screens show for `COc1ccc(S(=O)(=O)N2CCCCC2)cc1NS(=O)(=O)c1ccccc1`?
Bfl-1 A1 inh: -1.1; Ecoli rRNA inh: -5.0; Beta apoptosis: 1.3; Vif A3G: -4.2%; MLL AF4-AF9 inh: -2.1; Ecoli rRNA inh OD600: -21.4; Ecoli rRNA inh RFP: -6.1

Results for C/C=C/c1ccc(OCC(O)CNCC(c2ccc(OC)cc2)N(C)C)c(OC)c1 (centres undefined) ?
RanGTP-Imp inh: -3.7; Bfl-1 A1 inh: -0.1; Ecoli rRNA inh: 10.9; Beta apoptosis: -4.1; Calb FLC: -11.7; Vif A3G: 0.1%; MLL AF4-AF9 inh: 12.7; T cruzi repl: -2.2; Ecoli rRNA inh OD600: 7.0; Ecoli rRNA inh RFP: 2.6

Results for O=C(CSc1ccccc1C(=O)N1CCN(c2ccccc2)CC1)N1CCCC1 ?
Bfl-1 A1 inh: -0.5; Ecoli rRNA inh: 5.3; Beta apoptosis: -1.5; MLL AF4-AF9 inh: -0.9; Ecoli rRNA inh OD600: 4.8; Ecoli rRNA inh RFP: 3.2

How did Cc1cccc(N=C2NC(=O)/C(=C/c3cccn3C)S2)c1 do in these assays?
RanGTP-Imp inh: -8.1; Bfl-1 A1 inh: 0.6; Ecoli rRNA inh: -9.0; Beta apoptosis: -14.9; Calb FLC: 3.9; Vif A3G: 4.7%; MLL AF4-AF9 inh: 0.4; T cruzi repl: 5.5; Ecoli rRNA inh OD600: -5.3; Ecoli rRNA inh RFP: 5.7

How did COc1ccc(CN2CCCC(C(=O)N(C)Cc3ccccc3)C2)cc1OC (centres undefined) do in these assays?
RanGTP-Imp inh: 2.0; Bfl-1 A1 inh: -0.1; Beta apoptosis: 11.6; Calb FLC: -23.4; Vif A3G: 29.9%; T cruzi repl: 38.4

How did CCSc1nnc(NC(=O)C2CC(=O)N(Cc3ccc(C)cc3)C2)s1 (centres undefined) do in these assays?
RanGTP-Imp inh: 0.0; Bfl-1 A1 inh: 0.4; Ecoli rRNA inh: 2.1; Beta apoptosis: -1.6; Calb FLC: 6.5; Vif A3G: -12.9%; MLL AF4-AF9 inh: -1.1; T cruzi repl: 4.4; Ecoli rRNA inh OD600: 6.3; Ecoli rRNA inh RFP: 1.8

How did C/C(Cn1cnc([N+](=O)[O-])n1)=N/NC(=O)COc1ccccc1Cl do in these assays?
RanGTP-Imp inh: 2.6; Bfl-1 A1 inh: -1.1; Ecoli rRNA inh: 0.8; Beta apoptosis: -2.8; Calb FLC: 12.7; Vif A3G: -3.1%; MLL AF4-AF9 inh: -2.0; T cruzi repl: 56.0*; Ecoli rRNA inh OD600: -0.2; Ecoli rRNA inh RFP: -0.9

What do the screens show for `C=CCNC(=O)c1onc(CSc2cc(C)cc(C)c2)c1C(=O)NCC=C`?
RanGTP-Imp inh: 3.8; Bfl-1 A1 inh: -0.9; Beta apoptosis: 12.0; Calb FLC: 4.0; Vif A3G: -8.4%; T cruzi repl: 12.1

What do the screens show for `C/C(=N\NC(=O)COc1ccc(C)cc1C(C)C)c1ccc(-n2ccnc2)cc1`?
RanGTP-Imp inh: inconclusive; Bfl-1 A1 inh: -0.5; Beta apoptosis: -5.3; Calb FLC: 17.1; Vif A3G: -6.6%; T cruzi repl: 2.3

What do the screens show for `O=[N+]([O-])c1cc(C(F)(F)F)ccc1NCCCN1CCOCC1`?
RanGTP-Imp inh: 0.3; Bfl-1 A1 inh: 2.1; Ecoli rRNA inh: 4.3; Beta apoptosis: -5.4; Calb FLC: -15.7; Vif A3G: -3.8%; MLL AF4-AF9 inh: 0.0; T cruzi repl: 16.5; Ecoli rRNA inh OD600: 11.9; Ecoli rRNA inh RFP: -4.7

Results for COc1cc(OC)cc(C(=O)OCC(=O)N(C)c2ccccc2)c1 ?
RanGTP-Imp inh: -1.7; Bfl-1 A1 inh: 0.1; Ecoli rRNA inh: -2.6; Beta apoptosis: 2.5; Calb FLC: -4.8; MLL AF4-AF9 inh: -4.8; T cruzi repl: -10.7; Ecoli rRNA inh OD600: -6.9; Ecoli rRNA inh RFP: -0.8

What do the screens show for `N#Cc1ccccc1/C=N/Nc1nc(-c2ccccc2)c2cc(Cl)ccc2n1`?
RanGTP-Imp inh: 1.7; Bfl-1 A1 inh: -0.7; Ecoli rRNA inh: -11.6; Beta apoptosis: 37.4; Calb FLC: 9.5; Vif A3G: -7.0%; T cruzi repl: 0.2; Ecoli rRNA inh OD600: -15.3; Ecoli rRNA inh RFP: 1.1

What do the screens show for `Cc1ccc(S(=O)(=O)N(CC(=O)Nc2cccnc2)c2cccc([N+](=O)[O-])c2)cc1`?
RanGTP-Imp inh: inconclusive; Bfl-1 A1 inh: -0.3; Ecoli rRNA inh: 8.0; Beta apoptosis: -1.3; Calb FLC: 2.6; MLL AF4-AF9 inh: 9.7; T cruzi repl: 5.1; Ecoli rRNA inh OD600: 1.4; Ecoli rRNA inh RFP: 0.9

What do the screens show for `CCN(C[C@H]1N[C@@](CC)(C(=O)OC)[C@H]2C(=O)N(C)C(=O)[C@@H]12)S(=O)(=O)c1ccc(C)cc1`?
Bfl-1 A1 inh: -0.7; Ecoli rRNA inh: 1.4; Beta apoptosis: -5.9; Vif A3G: 1.0%; MLL AF4-AF9 inh: -3.2; Ecoli rRNA inh OD600: 18.1; Ecoli rRNA inh RFP: 1.6

What do the screens show for `Cc1ccc(S(=O)(=O)Nc2ccc(SC(F)F)cc2)c(C)c1`?
RanGTP-Imp inh: -1.3; Bfl-1 A1 inh: 0.0; Beta apoptosis: 0.5; Calb FLC: -8.5; T cruzi repl: 3.0

What do the screens show for `CCC1CCC/C1=N\NC(=O)c1cc(C)[nH]n1` (centres undefined)?
RanGTP-Imp inh: 1.1; Bfl-1 A1 inh: 0.3; Ecoli rRNA inh: 6.4; Beta apoptosis: -1.6; Calb FLC: 8.9; Vif A3G: 2.8%; MLL AF4-AF9 inh: -5.6; T cruzi repl: -8.8; Ecoli rRNA inh OD600: 3.0; Ecoli rRNA inh RFP: 1.5

How did CC(C)(C)NC(=O)C(=O)NNC(=O)c1ccccc1Br do in these assays?
RanGTP-Imp inh: -3.6; Bfl-1 A1 inh: 0.9; Ecoli rRNA inh: -4.8; Beta apoptosis: -14.2; Calb FLC: 3.4; Vif A3G: 0.1%; MLL AF4-AF9 inh: -1.3; T cruzi repl: -4.0; Ecoli rRNA inh OD600: -3.3; Ecoli rRNA inh RFP: 2.8

Results for O=C(OC(C(=O)NCc1cccs1)c1ccccn1)c1cccs1 (centres undefined) ?
RanGTP-Imp inh: -1.2; Bfl-1 A1 inh: 0.6; Beta apoptosis: 4.5; Calb FLC: 0.6; Vif A3G: 1.3%; T cruzi repl: 1.1

What do the screens show for `Cc1cccc2nc(CSc3nc4[nH]ncc4c(=O)n3-c3ccccc3Cl)cc(=O)n12`?
RanGTP-Imp inh: 0.4; Bfl-1 A1 inh: -0.2; Ecoli rRNA inh: -3.4; Beta apoptosis: 3.5; Calb FLC: 17.4; Vif A3G: -1.3%; MLL AF4-AF9 inh: 4.3; T cruzi repl: -3.8; Ecoli rRNA inh OD600: -15.2; Ecoli rRNA inh RFP: 18.3

How did C=CCn1c(N2CCOCC2)nc2c1c(=O)[nH]c(=O)n2C do in these assays?
RanGTP-Imp inh: -3.6; Bfl-1 A1 inh: 1.7; Ecoli rRNA inh: 10.0; Beta apoptosis: 1.1; Calb FLC: -7.0; Vif A3G: 1.7%; MLL AF4-AF9 inh: -9.5; T cruzi repl: -1.7; Ecoli rRNA inh OD600: 5.3; Ecoli rRNA inh RFP: 0.5

How did CO/N=C/c1ccc(Sc2ccc(C)cc2)c([N+](=O)[O-])c1 do in these assays?
RanGTP-Imp inh: -2.8; Bfl-1 A1 inh: -1.0; Beta apoptosis: 11.1; Calb FLC: -2.8; Vif A3G: -1.5%; T cruzi repl: 1.3

How did O=C(CN1C(=O)C2CCCCC2C1=O)N1CCN(c2ccc(F)cc2)CC1 (centres undefined) do in these assays?
RanGTP-Imp inh: inconclusive; Bfl-1 A1 inh: 0.4; Ecoli rRNA inh: 7.5; Beta apoptosis: -8.6; Calb FLC: -8.7; MLL AF4-AF9 inh: -2.9; T cruzi repl: 4.4; Ecoli rRNA inh OD600: -9.2; Ecoli rRNA inh RFP: 2.5

Results for COC(=O)C(CC(C)C)NC(=O)c1cccs1 (centres undefined) ?
Bfl-1 A1 inh: -0.4; Ecoli rRNA inh: 13.9; Beta apoptosis: 0.9; Calb FLC: 0.5; MLL AF4-AF9 inh: -2.1; Ecoli rRNA inh OD600: 12.9; Ecoli rRNA inh RFP: -0.4

Results for O=C1CCC(C(=O)N(CCO)Cc2ccccc2)CN1CC1CCCCC1 (centres undefined) ?
RanGTP-Imp inh: -1.1; Bfl-1 A1 inh: -0.6; Ecoli rRNA inh: 1.2; Beta apoptosis: -4.1; Calb FLC: 2.7; Vif A3G: -6.1%; MLL AF4-AF9 inh: 0.2; T cruzi repl: -6.1; Ecoli rRNA inh OD600: 4.7; Ecoli rRNA inh RFP: 0.3

What do the screens show for `COCCCN1C(=O)C(O)=C(C(=O)c2ccc(C)o2)C1c1cccc(Br)c1` (centres undefined)?
RanGTP-Imp inh: 8.1; Bfl-1 A1 inh: 0.2; Beta apoptosis: 1.9; Calb FLC: -3.5; Vif A3G: -0.5%; T cruzi repl: -15.1

Source: PubChem
